# Compound activity (PubChem)
# StopGo FLuc: FMDV 2A StopGo reporter, firefly signal; HEK cells with a luciferase reporter of 2A StopGo recoding; Potency, µM (titrated, usually from 57.5 µM), without a hit: at the top dose signal change, negative = less light; 0.23% of 120,000 active; AID 1745856; active = well fitted falling curve with a large enough effect; inconclusive = small, poorly fitted or top-dose-only effect; inactive = no such curve, though single readings can be large or run the other way; further: nearly all actives have a fitted effect of over 60% in size; overnight with compound
# StopGo RLuc: lowers the Renilla signal of an FMDV 2A StopGo reporter; HEK cells with a luciferase reporter of 2A StopGo recoding; Potency, µM (highest dose often 57.5 µM), inactives show at the highest dose signal change, negative = less light; 0.32% of 120,000 active; active means well fitted falling curve with a large enough effect; inconclusive means small, poorly fitted or top-dose-only effect; inactive means no such curve, though single readings can be large or run the other way; further: nearly all actives have a fitted effect of over 55% in size; overnight with compound
# * marks the source's active call; other numbers are inactive results; ? = inconclusive; [ ] = dose if it differs, or a comment. On the % scale 0 is the no-effect control and ±100 the full control effect; potency means the concentration at half of the fitted maximal effect.
# Below each SMILES: StopGo RLuc, StopGo FLuc
Cn1c(=O)c(=O)n(C)c2cc(N3CCOCC3)c(NS(=O)(=O)c3ccc(F)c(Cl)c3)cc21
→ 20%, -8%
CCOc1cc(/C=N/O)ccc1O
→ -1%, 49%[activator]
CSCCCNC(=S)Nc1ccc(F)c(Cl)c1
→ 184%[activator], 0%
COc1ccc(NC(=O)/C=C\C(=O)N(c2ccc(C(C)C)cc2)C(C(=O)NCc2ccco2)c2ccc(F)cc2)cc1 (stereo not given)
→ -23%, -25%
CC(C)c1ccc(NC(=O)c2ccc(F)c(S(=O)(=O)N3CCCC3)c2)cc1
→ 18%, 4%
O=C(OCc1nc2ccccc2o1)c1cccc(S(=O)(=O)N2CCCC2)c1
→ 7%, 12%
CCCc1cc(=O)oc2cc(C)cc(OC(C)C(=O)NCCCn3ccnc3)c12 (stereo not given)
→ 41%[activator], 5%
C=Cc1ccc(Cn2c(C)c(CNCc3ccc(SC)cc3)c(C(=O)O)c2C)cc1
→ -12%, 8%
COc1ccc(Br)cc1CNC(=O)Cn1nc(C)n2c(cc3cc(F)ccc32)c1=O
→ -3%, -15%
CCc1ccc(NC(=O)Cn2c(=O)n(CC3CCCO3)c(=O)c3cc(OC)c(OC)cc32)cc1 (stereo not given)
→ -7%, -5%
COc1ccc(OC)c(C2C(C(=O)Nc3ccccc3)=C(C)Nc3nc4ccccc4n32)c1 (stereo not given)
→ -4%, -3%
CCOCCn1c(=NC(=O)c2ccc3c(c2)OCCO3)sc2cc(OCC)ccc21
→ -2%, -3%
CCOc1cc(NC(=O)c2ccc(Cn3cc(Cl)cn3)cc2)ccc1OC(F)F
→ -26%, -23%
Cn1c(CC2CCS(=O)(=O)C2)nnc1SCC(=O)Nc1ccc2c(c1)CCC2 (stereo not given)
→ -20%, -5%
CCN(CC)CCNC(=O)CCC(=O)O
→ 4%, 19%
Cc1cccc(CN2C(=O)c3ccccc3Sc3ccc(C(=O)NCCCN4CCOCC4)cc32)c1
→ 4%, -9%
Cn1c(Oc2ccccc2Cl)c(C#N)c(=O)n(C)c1=O
→ -1%, 1%
Cc1ccc(-c2csc(/C(C#N)=C/c3ccccc3Cl)n2)cc1
→ -12%, 18%
CCOCCCNc1oc(-c2ccc(S(=O)(=O)N3CCc4ccccc4C3)cc2)nc1C#N
→ 84%[activator], 10%
CCOC(=O)c1ccc(NC2=CC(c3ccc(OCC)cc3)N(c3ccc(C(=O)OCC)cc3)C2=O)cc1 (stereo not given)
→ 1%, 20%
COc1ccc2nc(NC(=O)CSc3ncccn3)sc2c1
→ -4%, 0%
COC(=O)c1nnn(CC(=O)NC(=O)Nc2c(C)cccc2C)c1C(=O)OC
→ 21%, 41%[activator]
O=C(Cc1cccs1)N/N=C\c1cccc2ccccc12
→ 64%[activator], 213%[activator]
Cc1cc(S(=O)(=O)NCc2ccccc2Cn2cccn2)ccc1Br
→ 103%[activator], -10%
COc1ccc(C=O)cc1CN1CCCCCC1
→ 12%, 21%
CCCCNc1oc(/C=C/c2ccccc2OC)nc1C#N
→ 26%, 0%
COc1ccc(N2CCN(c3oc(-c4ccc(COc5cccc(C)c5)o4)nc3C#N)CC2)cc1
→ -12%, 4%
O=C(NC1CC1)c1cc2occc2n1Cc1ccccc1Cl
→ 23%, 2%
Cc1ccc(Cc2cnc(N)s2)cc1C
→ -4%[1.06 µM], 21%
O=C(CSc1nc(C2CC2)nc2ccccc12)NCc1ccccc1
→ -9%, -10%
Nc1c(C(=O)c2ccc(F)cc2)sc(Nc2ccccc2F)c1S(=O)(=O)c1ccc(Br)cc1
→ 33%[activator], -13%
O=S1(=O)c2c(NCc3ccco3)cccc2Oc2ccccc2CN1Cc1cn(Cc2ccc(C(F)(F)F)cc2)nn1
→ 21%, -11%
O=c1oc2ccc(Cl)cc2cc1S(=O)(=O)N1CCc2ccccc2C1
→ -9%, -9%
COc1ccc(CCCc2nnc(SCC(=O)Nc3ccc(C)cc3)o2)cc1
→ -9%, 36%[activator]
COc1cccc(CNC(=O)C2CCC(CNS(=O)(=O)c3ccc4c(c3)CCCC(=O)N4)CC2)c1 (stereo not given)
→ 24%, 10%
CC(=O)c1ccc(NC(=O)c2cc(S(=O)(=O)N3CCCCCC3)cn2C)cc1
→ -4%, -13%
Cc1ccc2c(c1)c1c(c(=O)n(-c3cccc(Cl)c3)c(=O)n1C)n2C
→ -5%, -9%
NC(=O)c1ccc(C(=O)NCC(O)c2ccc(F)c(F)c2)nc1 (stereo not given)
→ -1%, 0%
CCCOc1ccc(NC(=O)CC2SCCNC2=O)cc1 (stereo not given)
→ 1%, 59%[activator]
CN(C)CCCNc1oc(COc2ccc(Br)cc2)nc1C#N
→ -17%, -5%
O=C(CSCc1cc(=O)c2cc(F)ccc2[nH]1)Nc1ccccc1Cl
→ 0%, -3%
Cc1ccccc1Cn1c2ccccc2c2cnn(CC(=O)NCCc3ccccc3)c(=O)c21
→ -7%, 89%[activator]
Cc1ccc(-n2ncc(C(=O)Nc3ccc4c(c3)OCO4)c2C2CCN(C(=O)OC(C)(C)C)CC2)c(C)c1
→ 1%, 60%[activator]
COc1ccc(S(=O)(=O)Oc2ccc3ccc(=O)oc3c2)cc1OC
→ -2%[1.06 µM], ?
Cc1ccc(NC(=O)c2cnc(SCC(=O)N3CCCc4ccccc43)n(C)c2=O)cc1
→ -8%, -2%
CC(C)(C)NC(=O)N1CCC(C(=O)O)CC1
→ 4%, -5%
CC(=O)c1ccc(N2CCN(Cc3nc(-c4cccs4)no3)CC2)c(F)c1
→ -31%, -8%
O=c1[nH]c2ccc(-c3csc(Nc4ccccc4)n3)cc2o1
→ 12%, 149%[activator]
CCCCCn1nc(C(=O)Nc2nc3ccccc3s2)c2ccccc2c1=O
→ 0%, 11%
Cc1ccc(NC(=O)Cn2c(=O)c3cc(Cl)ccc3n3nncc23)cc1
→ -11%, -14%
Cc1nc(-c2ccccc2)sc1-c1ccccc1
→ 12%, 177%[activator]
O=C(COc1ccccc1Cl)Nc1ccc2oc(-c3ccncc3)nc2c1
→ 0%, 44%[activator]
CSc1ncc(Cl)c(C(=O)N(Cc2ccc(C)cc2)C2CCS(=O)(=O)C2)n1 (stereo not given)
→ 19%, -14%
CCCCn1c2ccccc2c2nnc(SCc3ccc(F)cc3)nc21
→ -1%, -7%
N#C/C(=C\c1ccc2cccnc2c1)c1nc2ccccc2[nH]1
→ 351%[activator], 388%[activator]
Cc1c(C(=O)OC2CCCCC2)[nH]c2c1C(=O)CC(c1ccccc1)C2 (stereo not given)
→ 2%, -7%
CCCc1cc(=O)oc2cc(C)cc(OC(C)C(=O)NCCN3CCOCC3)c12 (stereo not given)
→ -9%, -5%
Cc1ccc(S(=O)(=O)N(CC(O)Cn2c3ccccc3c3ccccc32)c2cccc(C(=O)N(C)C)c2)cc1 (stereo not given)
→ 11%, -24%
CSCCC(NC(=O)c1ccc(Cl)cc1Cl)C(=O)Nc1cccc(C(C)=O)c1 (stereo not given)
→ 1%, 14%
CCCCc1nn2c(=O)cc(COC(=O)c3cccc(NC(=O)c4ccccc4F)c3)nc2s1
→ 0%, 93%[activator]

# Carrying on.
# Below each SMILES: StopGo RLuc, StopGo FLuc
Cc1cc2nc(-c3ccc(NC(=O)c4cc5ccccc5o4)cc3)oc2cc1C
→ -5%, 170%[activator]
O=C(Nc1cccc2cccnc12)N1CCCCCC1
→ 52%[activator], 83%[activator]
O=C(C1=Cc2cc(Cl)ccc2OC1)N1CCN(S(=O)(=O)c2cc(F)ccc2F)CC1
→ -12%, -13%
CCOc1cc2c(cc1NC(=O)c1ccc(OC(C)C)cc1)OC(C)C2 (stereo not given)
→ 3%, 23%
Cn1c(=O)c2c(nc(NCCO)n2CCCc2ccccc2)n(C)c1=O
→ -25%, -23%
CCSc1nnc2n(-c3cccc(C)c3)c(=O)c3c4c(sc3n12)CCCC4
→ -10%, -15%
CN(c1ccccc1)S(=O)(=O)c1nnc(NC(=O)c2cccs2)s1
→ 77%[activator], 34%[activator]
CC(C)n1nccc1NC(=O)c1nn(Cc2ccccc2)c(=O)c2ccccc12
→ 11%, -1%
COc1cccc([C@@]2(O)CCCC[C@@H]2CN(C)C)c1
→ -11%, -16%
CC(C)NC(=O)NC(=O)C(C)Sc1nc(-c2ccco2)nc2ccccc12 (stereo not given)
→ -6%, 8%
CCOCCOC(=O)COc1ccc2c(=O)c(-c3ccccc3Cl)coc2c1
→ -3%, -10%
Cc1cc(NC(=O)Nc2nnc(N(C)C3CCCCC3)s2)ccc1Br
→ -6%, 5%
Cc1cccc2cc(-c3noc(-c4ccc(C(C)(C)C)cc4)n3)c(=O)[nH]c12
→ -9%, 2%
O=c1c(=O)n(-c2ccc(F)cc2)ccn1Cc1c(F)cccc1Cl
→ 15%, -2%
CCn1c(=N)c(C(=O)NCc2cccnc2)cc2c(=O)n3cc(C)ccc3nc21
→ -5%, -6%
Cc1ccsc1CN(CC1CCCO1)C(=O)COc1ccc(Cl)cc1Cl (stereo not given)
→ 109%[activator], -2%
O=C(c1ccc2ncsc2c1)N1CCN(c2nc3c(F)cccc3s2)CC1
→ 12%, 0%
CCc1nn2c(=O)cc(CNc3ccc(C(=O)NCC(=O)OC)cc3)nc2s1
→ 1%, 0%
COc1cc(/C=C(/C#N)c2nc(-c3cc4ccccc4oc3=O)cs2)ccc1O
→ 3%, -6%
CC(=O)c1sc2c(c1C)c(=O)n(-c1ccc(Cl)cc1)c(=O)n2Cc1cc(=O)n2cc(Cl)ccc2n1
→ -1%, -15%
COc1cccc(-n2c(-c3ccco3)nc3c(cnn3-c3ccc(C)c(C)c3)c2=O)c1
→ 29%, 0%
O=C(O)c1cc2ccccc2c2cccnc12
→ -13%, -12%
CCc1cc(CC)n(-c2nc3c(c(=O)n(CC(=O)OC)c(=O)n3C)n2C)n1
→ -7%, -15%
CCOc1ccc(NC(=O)CCS(=O)(=O)c2ccc(Br)cc2)cc1
→ 3%, 0%
Cc1cc(S(=O)(=O)N(C)C)c(Cl)cc1Cl
→ 28%, -4%
CN1C(=O)NC(=O)C2(Cc3c(ccc4ccccc34)N(C)C2)C1=O (stereo not given)
→ 5%, 18%
O=C(c1cnc(N2CCOCC2)c2ccccc12)N1CCN(c2ccccc2)CC1
→ 14%, -22%
CC(=O)c1ccc(O)c(C(N)=O)c1
→ 16%, -12%[11.5 µM]
COc1cccc(C(=O)NCc2ccc(C)cc2)c1
→ 12%, 77%[activator]
O=C(Cc1cccs1)OCC(=O)c1ccccc1
→ 11%, 9%
CCOc1ccc(S(=O)(=O)Nc2cc3c(C(=O)OCc4ccccc4)c(C)oc3c3ccccc23)cc1
→ 19%, 10%
CCc1ccc(S(=O)(=O)N2CCC3(CC2)NC(=O)c2ccccc2N3)cc1
→ -5%, 0%
CCc1nc2ccc(C(=O)NC(C)CC)cc2nc1CC (stereo not given)
→ 52%[activator], 45%[activator]
Cc1ccccc1Cn1c(=O)n(Cc2ccc(Cl)cc2)c(=O)c2cccnc21
→ 14%, 29%
Cc1ccccc1C(=O)NC(C)c1nc(-c2ccccc2C)no1 (stereo not given)
→ 7%, -2%
Cc1ccc(N2C(=O)CCSC23C(=O)N(Cc2ccccc2)c2ccccc23)cc1 (stereo not given)
→ 96%[activator], -11%
O=S(=O)(c1ccccc1)c1nc(-c2cccc(Cl)c2)oc1N1CCOCC1
→ 157%[activator], -1%
Cc1ccc(Nc2ccc(N3CCN(C(=O)c4ccc([N+](=O)[O-])cc4)CC3)nn2)cc1
→ 5%, 12%
O=C1Sc2ccc(S(=O)(=O)N(Cc3ccccc3)Cc3ccccc3)c3cccc1c23
→ 112%[activator], 2%
CCOC(=O)c1c(C)[nH]c(C(=O)COc2ccc3ccc(=O)oc3c2)c1C
→ -10%, -7%
O=C(Nc1ccc(Br)cc1F)c1cc(S(=O)(=O)NCc2ccc(F)cc2)ccc1F
→ 48%[activator], -11%
COc1ccccc1CC(=O)Nc1ccc2c(c1)NC(=O)CS2
→ 14%, 19%
Cc1ccc(S(=O)(=O)c2cn(Cc3ccc(F)cc3)c3cc(N4CCCC4)c(F)cc3c2=O)cc1
→ -3%, -11%
COc1ccc(F)cc1C(=O)CSc1nnc(C2CC2)n1C1CC1
→ -2%, -4%
O=C(Cn1nc(N2CCN(c3ccccc3)CC2)ccc1=O)NC1CCCCC1
→ -12%, -4%
COc1ccc(NCC(=O)Nc2ccccc2C(=O)NC2CC2)cc1
→ 3%, -1%
CCOC(=O)C1C2C=CC(C3CC23)C1C(=O)OCc1ccccc1Cl (stereo not given)
→ 89%[activator], -6%
Cc1ccc2cc3cc(C(=O)NC4CCCCC4)sc3nc2c1
→ 24%, 156%[activator]
CC(C[N+](C)(C)C)OC(N)=O (stereo not given)
→ -8%, -19%
COCc1nnc(NS(=O)(=O)c2ccccc2)s1
→ 1%, -1%
CC1(C)CC(=O)C2=C(C1)Nc1[nH]n(-c3ccccc3)c(=O)c1C2c1ccccc1F (stereo not given)
→ 170%[activator], 16%
O=C(O)c1ccccc1S
→ -8%, -5%[11.5 µM]
CCc1ccc(OCC(=O)Nc2ccc(Cl)c(-c3nc4cc(C)cc(C)c4o3)c2)cc1
→ 7%, -1%
COC(=O)c1ccc(/C=N/OCc2ccc(OC)c(F)c2)cc1
→ 4%, 3%
Cc1ccccc1-c1cc(=O)c2cc(NC(=O)c3cccnc3)ccc2o1
→ 1%, 23%
Cn1nc(C(=O)Nc2ccc(Br)cc2)c2ccccc2c1=O
→ 26%, 0%

# Reprinted at random: 3 records from the list.
# Below each SMILES: StopGo RLuc, StopGo FLuc
Cc1cccc(CN2C(=O)c3ccccc3Sc3ccc(C(=O)NCCCN4CCOCC4)cc32)c1
→ 4%, -9%
CCc1nc2ccc(C(=O)NC(C)CC)cc2nc1CC (stereo not given)
→ 52%[activator], 45%[activator]
Cc1ccc(NC(=O)c2cnc(SCC(=O)N3CCCc4ccccc43)n(C)c2=O)cc1
→ -8%, -2%

# Some of the compounds tested; the hit share may differ from the screen's.
